From PubChem
VDR inhibitor = inhibitors of human vitamin D receptor | P11473 | 400,000 compounds, 0.93% hits | Potency, µM, inactives show max response, negative = inhibition, actives largely listed as inhibitors | VDR-SRC2-3 peptide fluorescence polarization, 2 h; active = well fitted inhibition curve with a large enough effect; inconclusive = small, poorly fitted or top-dose-only effect, or another doubt; inactive = no such curve, though single readings can be large or run the other way; note: series mostly up to about 120 µM
Target sequence (P11473 whole entry, looked up): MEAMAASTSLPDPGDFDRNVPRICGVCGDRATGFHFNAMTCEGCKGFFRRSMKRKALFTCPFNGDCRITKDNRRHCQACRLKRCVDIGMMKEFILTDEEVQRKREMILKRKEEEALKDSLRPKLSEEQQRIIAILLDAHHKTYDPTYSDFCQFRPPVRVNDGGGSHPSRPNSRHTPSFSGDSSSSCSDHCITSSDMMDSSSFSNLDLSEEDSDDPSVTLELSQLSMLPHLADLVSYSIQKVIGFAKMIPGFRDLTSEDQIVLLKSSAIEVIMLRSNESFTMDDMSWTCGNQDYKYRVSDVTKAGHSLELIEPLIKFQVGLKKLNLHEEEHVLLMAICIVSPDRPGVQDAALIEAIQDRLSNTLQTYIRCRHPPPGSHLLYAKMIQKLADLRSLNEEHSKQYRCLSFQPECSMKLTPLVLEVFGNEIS
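Measured by FP: displacement of SRC2-3 coactivator peptide from VDR by library compounds, following a two-hour ambient incubation.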
Active calls of the source: *; ? = inconclusive; & = joins results of further samples. % is set by controls: 0 for no effect and ±100 for the full control effect; potency is the fitted concentration of half-maximal effect. Some of the compounds tested (hit frequency here may not be typical).

SMILES	VDR inhibitor
CCN(Cc1nc2ccccc2c(=O)[nH]1)C(=O)COc1ccccc1Cc1ccccc1	-14%
CCC(=O)Nc1ccc(/C=C(\C(C)=O)C(=O)c2ccccc2)cc1	?
CCOC(=O)C(Cc1ccccc1)NC(=O)CCCC(=O)c1ccccc1 (stereo unspecified)	-6%
O=C1c2ccccc2C(Cc2ccncc2)(Cc2ccncc2)c2ccccc21	-11%
CC(=O)N1c2ccccc2CCc2ccc([N+](=O)[O-])cc21	-7%
CCN(CC)C(=O)c1ccc(S(=O)(=O)c2ccccc2)cc1	8%
COc1ccc(Br)cc1/C=N/Nc1ccccn1	-7%
O=c1[nH]c(-c2cccs2)nc2ccccc12	-10%
O=c1c(-c2cccs2)nc2cnc(N3CCOCC3)nc2n1Cc1cccs1	1%
Cc1nc(C(F)(F)F)c(C(=O)N=CN(C)C)s1	-24%
O=C(NN1CCOCC1)c1ccccc1	0%
O=C(Nc1nc(-c2ccc(F)c(F)c2)cs1)Nc1ccc(F)cc1F	-1%
CCCn1c(SC(C)C(=O)NCC2CCCO2)nc2cc(Cl)ccc2c1=O (stereo unspecified)	-26%
Cc1nc(Nc2ccccc2F)c2nnn(Cc3ccccc3Cl)c2n1	-6%
COCc1cc(C)nc(N2CCCCC2)c1C#N	14%
CCc1nc(SCC(=O)Nc2ccccc2Cl)n[nH]1	9%
N#Cc1c(C#N)c(O)c2ccccc2c1O	28µM*
Cc1cc(C)cc(NC(=S)NCC2CCN(C(C)c3ccccc3)C2)c1 (stereo unspecified)	-8%
CCn1c(CC(=O)Nc2ccc(Cl)c(Cl)c2)nnc1SCc1ccc(Cl)cc1	4%
Cc1ccc(C(C)NC(=O)c2ccc3c(c2)OCCO3)cc1C (stereo unspecified)	-1%
CCc1ccc(NC(=O)c2cnc3c(-c4ccccc4)c(C)nn3c2C)cc1	14%
COc1ccc(NC(=O)C(c2ccccc2)N(C)C(=O)/C=C\c2ccc3c(c2)OCO3)cc1 (stereo unspecified)	-28%
Cc1ccc2c(c1)C1CN(C)CCC1N2C(=S)Nc1ccc(Cl)cc1Cl (stereo unspecified)	0%
Cc1ccc(C)c(CN2CCCN(CC(=O)Nc3ccc(C)c(C)c3)S2(=O)=O)c1	-8%
COc1ccccc1NC(=O)Cn1cnc2c1c(=O)n(C)c(=O)n2C	6%
Cc1ccc2c(CC(=O)NCCc3ccc(S(N)(=O)=O)cc3)coc2c1	-14%
O=C(COC(=O)c1ccco1)Nc1nc2c(F)c(F)c(F)cc2s1	6%
O=C(Cn1c(=O)[nH]c2ccccc2c1=O)Nc1cccnc1	-11%
NC(=O)C1CCN(C(=O)c2cc3ccccc3cc2O)CC1	-16%
CSCC[C@H](NC(=O)OC(C)(C)C)C(=O)N1CCC(C(=O)N[C@@H](C)C(=O)NC(C)c2ccccc2)CC1 (stereo partly specified)	-12%
O=C(Nc1nccs1)C12CC3CC(C1)CC(C(=O)Nc1nccs1)(C3)C2	12%
COC(=O)[C@H]1O[C@@H](c2cc(OC)c(C)c(OC)c2O)[C@H](C)[C@@H](O)[C@H]1C	-6%
CCCCOC(=O)c1ccc(NC(=O)C(CCS(C)(=O)=O)NC(C)=O)cc1 (stereo unspecified)	8%
CCN(CC)S(=O)(=O)c1cccc(-c2nnc(C(=O)c3ccc(C(F)(F)F)cc3)o2)c1	13%
C=Cc1ccc(C(=O)N2CCCC(CCC(=O)N3CCN(c4ccccn4)CC3)C2)cc1 (stereo unspecified)	-18%
CCCCSCCCNC(=O)c1c[nH]c2ccc(S(=O)(=O)Nc3cccc(OC)c3)cc2c1=O	3%
Cc1c([N+](=O)[O-])c(C(=O)NC2CCCC2)nn1C	4%
C=C(C)C(=O)c1ccc(F)cc1	-3%
CC(=O)N1CCC(=NNC(=O)c2cc3ccccc3cc2O)CC1	-21%
Cc1ccc(-c2nnc(-c3cccc(Br)c3)o2)cc1	?
Cc1nc2c(C(=O)NCc3ccco3)cnn2c(C)c1Cc1ccc(F)cc1Cl	-5%
C=CCn1c(C)cc(C(=O)CN2C(=O)c3ccccc3S2(=O)=O)c1C	-25%
Cc1ccccc1CN(c1ccc(C(N)=O)cc1)S(C)(=O)=O	-3%
COc1cccc(-c2nc(SCc3cccc(Br)c3)n3[nH]c(=O)cc3n2)c1	-8%
Cc1nc(-c2cccc(S(=O)(=O)N3CCOCC3)c2)cs1	?
Cc1c(Cl)c(-c2n[nH]c(=S)n2-c2ccccc2)nn1C	-7%
O=c1c2ccccc2nc2n1CCC2	-24%
Nc1ccc(-c2nc3ncccc3o2)c(O)c1	8%
CCOc1ccc(NS(=O)(=O)c2ccc3[nH]cc(C(=O)N4CCCCCC4)c(=O)c3c2)cc1	-6%
O=C(c1ccco1)N(Cc1nc2ccccc2c(=O)[nH]1)C1CCCC1	-9%
COc1ccc2c(O)c(-c3c(C)cc(C)cc3C)c(=O)[nH]c2c1	-8%
O=C(NC(=S)Nc1ccc(Br)cn1)c1cncc(Br)c1	6%
O=c1c2sccc2n(Cc2cccc(F)c2)c(=O)n1-c1ccc(F)cc1	-17%
COc1cc(OC)c(N(C)C(=O)c2sc3nc4n(c(=O)c3c2C)CCCCC4)cc1Cl	-5%
CC/S(CC1CC1(Cl)Cl)=N\S(=O)(=O)c1ccc(C)cc1 (stereo unspecified)	9%
CN(C(=O)Cn1c(=O)n(CCCS(=O)(=O)C2CCCCC2)c(=O)c2ccccc21)c1ccccc1	-11%
CC(C)(CCC(=S)N1CCOCC1)c1ccccc1	5%
CCOC(=O)C1CCN(C(=O)c2cc(S(=O)(=O)N3CCOCC3)ccc2C)CC1	-16%
CC(C)c1ccc(NC(=O)C2C3C=CC4(O3)C2C(=O)N(CCCN2CCCCC2)C4C(=O)NC2CCCCC2)cc1 (stereo unspecified)	-8%
COc1ccc(OC)c(/C=C/C(=O)N(C)CC(=O)Nc2ccc(N3CCOCC3)cc2)c1	-15%

Ordered by the number under VDR inhibitor (low to high): some entries from above.
SMILES	VDR inhibitor
O=c1c2sccc2n(Cc2cccc(F)c2)c(=O)n1-c1ccc(F)cc1	-17%
CC(C)c1ccc(NC(=O)C2C3C=CC4(O3)C2C(=O)N(CCCN2CCCCC2)C4C(=O)NC2CCCCC2)cc1 (stereo unspecified)	-8%
O=C(NC(=S)Nc1ccc(Br)cn1)c1cncc(Br)c1	6%

(listing goes on)
SMILES	VDR inhibitor
COc1ccc(-n2ncc3c(N4CCCCC4)ncnc32)cc1	-8%
O=C(c1ccco1)N1CCN(C(=O)c2ccc(CS(=O)c3ccc(F)cc3)o2)CC1 (stereo unspecified)	-12%
COC(=O)C(Cc1ccccc1)NC(=S)NC(=O)c1ccccc1 (stereo unspecified)	8%
Cc1nc(SCc2ccccc2C)n[nH]1	19%
COc1cccc(-n2c(=O)c3sc4ccccc4c3n(CC(=O)Nc3ccccc3C)c2=O)c1	11%
CCOc1ccc(S(=O)(=O)Nc2ccc(C(=O)NNC(=O)c3ccncc3)cc2)cc1	8%
CN(C)n1cnc2ccsc2c1=O	11%
O=C(Cc1ccc(Cl)cc1)Nc1ccc(S(=O)(=O)Nc2ncccn2)cc1	-19%
CN(C)/C(=N\OC(=O)c1ccccc1)c1nonc1N	-20%
O=C(CN1CCN(Cc2ccc(Cl)cc2)C1=O)NCCCN1CCOCC1	-19%
COc1ccc(Cl)cc1S(=O)(=O)n1nnc2ccccc21	29%
COCCNC(=O)CCCn1c(=O)c2ccccc2n(CC(=O)NCCC2=CCCCC2)c1=O	0%
Cc1nc(C(=O)NCCC(C)C)sc1C1(C)CC(c2ccccc2)=NO1 (stereo unspecified)	-18%
O=C(CSC1=Nc2ccccc2C2=NC(Cc3c[nH]c4ccccc34)C(=O)N12)NC1CCCCC1 (stereo unspecified)	-13%
COC(=O)NCC(c1cccnc1)N1CCN(c2ccccc2OC)CC1 (stereo unspecified)	-1%
COc1ccccc1N1CCN(C(=O)CSc2nc(-c3ccc(C(C)C)cc3)no2)CC1	17%
O=C(N/N=C/c1ccc2c(c1)OCO2)c1ccc(NC(=O)c2ccc(F)cc2)cc1	8%
Cc1cccn2c(=O)c3cc(C(=O)NCC4CCCO4)c(=N)n(C4CCCCC4)c3nc12 (stereo unspecified)	18%
CC(C)n1c(SCC(=O)NCc2ccco2)nc2c1c(=O)n(C)c(=O)n2C	17%
Cn1c(CN2CCCCC2)nc2cc(NC(=O)c3cccs3)ccc21	7%
Cc1cc(C)c2c(NC(N)=S)n[nH]c2n1	-9%
COc1cccc2cc(C(=O)N3CCCCC3C)c(=O)oc12 (stereo unspecified)	23%
CCCCc1c(C)nc(N)[nH]c1=O	-15%
O=C(NCCCCc1ccccc1)c1cc([N+](=O)[O-])cc([N+](=O)[O-])c1	18%
CC(C)(C)NC(=O)C1CC(=O)N(CCc2ccc(F)cc2)C1 (stereo unspecified)	-4%
Cc1noc(C)c1C(=O)OCC(=O)NCCC1=CCCCC1	4%
COCCNC(=S)N(CCc1c(C)[nH]c2ccc(F)cc12)Cc1cccnc1	7%
Cc1nc(SCC(=O)N2CCN(c3ccccc3)CC2)n[nH]1	-3%
N#CCCN(Cc1ccccc1)C(=O)Nc1ccc(F)cc1	3%
O=S(=O)(Nc1cccc(-c2ccc(N3CCOCC3)nn2)c1)c1ccc(F)cc1F	-2%
C/C(=N\OC(=O)c1cccc(C)c1)c1sc(-c2ccccc2)nc1C	-1%
COCCCNC(=O)NC(CCC(C)C)c1c(-n2cccc2)sc2c1CCN(C)C2 (stereo unspecified)	11%
CC(C)C(=O)Nc1nnc(SCC(=O)Nc2ccc3c(c2)OCO3)s1	18%
O/N=C(\c1ccc2c(c1)OCCO2)C1CCCCC1	8%
O=C(NNC(=S)NCc1ccco1)c1ccc(Cl)s1	1%
CCc1nc2ccccc2c(C(=O)OCC(=O)Nc2ccc(NC(C)=O)cc2)c1C	6%
O=C1CC[C@@H](O)CCN1CC[C@H](Sc1ccc(Br)cc1)c1ccccc1	?
CCOC(=O)c1cnn2c(C)cc(-c3ccc(F)cc3)nc12	-2%
COc1cnn(-c2ccc(Br)cc2)c(=O)c1SCc1ccccc1	15%
Cc1nn(Cc2ccc(C(=O)Nc3nccs3)cc2)c(C)c1Cl	-19%
COc1c(Cl)ccc(Cl)c1C(=O)NCc1ccco1	4%
COC(=O)c1cc(C)sc1NC(=O)CSc1ncccn1	-9%
COc1ccc(NC(=O)COc2ccc(-c3nn(C)c(=O)c4ccccc34)cc2)cc1	?
O=C(O)c1cccc(S(=O)(=O)Nc2ccc3[nH]c(=O)[nH]c3c2)c1	15%
Cn1c(=S)n(/N=C/c2ccc3c(c2)OCO3)c2ccccc21	-6%
C=CCn1c(SCC)nc2ccccc2c1=O	-2%
CCN1C(=O)[C@H]2[C@@H](c3ccc(C)cc3)N3C(=O)N(c4ccccc4)C(=O)[C@@]3(Cc3ccc(Cl)cc3)[C@H]2C1=O	-12%
CCN1C(=O)N[C@@H](CCc2ccccc2)C(C(C)=O)=C1C	?
COc1ccc(-n2nc3c(c2NC(=O)C(C)Oc2ccccc2)CS(=O)(=O)C3)cc1 (stereo unspecified)	-4%
N#CC1(NC(=O)COC(=O)CN2C(=O)c3ccccc3C2=O)CCCCC1	-8%
CC(=O)Nc1ccc(C(=O)c2ccccc2)cc1	-2%
O=C(Nc1c2c(nn1-c1ccc(F)cc1)CS(=O)(=O)C2)c1ccc(S(=O)(=O)N2CCOCC2)cc1	-27%
COc1ccc(C(CNC(=O)C(CCSC)NC(=O)c2ccccc2Cl)N2CCCC2)cc1 (stereo unspecified)	-25%
COc1cc(C2Oc3nc(SC)nnc3-c3ccccc3N2C(C)=O)cc(Cl)c1OC (stereo unspecified)	-14%
O=C(O)CC(c1ccccc1F)N1Cc2ccccc2C1=O (stereo unspecified)	-15%
Nc1ncnc2c1ncn2[C@@H]1O[C@H](COP(=O)(O)OP(=O)(O)OP(=O)(O)O)[C@@H](O)[C@H]1O	-6%&6%
COc1ccccc1C(=O)OCCN1CCOCC1	-3%
COCCn1c(=O)c(-c2cccc(C#N)c2)nc2cnc(N3CCOCC3)nc21	-9%
O=C1Nc2cc(C(=O)N3CCOCC3)ccc2SC1N1CCOCC1 (stereo unspecified)	-12%
O=C(NNC1=NCCCCC1)c1ccccc1	6%

In a second layout: results already given
| structure | VDR inhibitor |
| --- | --- |
| CN(C)n1cnc2ccsc2c1=O | 11% |
| O=C(Cc1ccc(Cl)cc1)Nc1ccc(S(=O)(=O)Nc2ncccn2)cc1 | -19% |
| CN(C)/C(=N\OC(=O)c1ccccc1)c1nonc1N | -20% |
| O=C(CN1CCN(Cc2ccc(Cl)cc2)C1=O)NCCCN1CCOCC1 | -19% |
| COc1ccc(Cl)cc1S(=O)(=O)n1nnc2ccccc21 | 29% |
| COCCNC(=O)CCCn1c(=O)c2ccccc2n(CC(=O)NCCC2=CCCCC2)c1=O | 0% |
| Cc1nc(C(=O)NCCC(C)C)sc1C1(C)CC(c2ccccc2)=NO1 (stereo unspecified) | -18% |

Already shown: 3 of the compounds above.
SMILES	VDR inhibitor
COc1ccc(-n2nc3c(c2NC(=O)C(C)Oc2ccccc2)CS(=O)(=O)C3)cc1 (stereo unspecified)	-4%
N#CC1(NC(=O)COC(=O)CN2C(=O)c3ccccc3C2=O)CCCCC1	-8%
CC(=O)Nc1ccc(C(=O)c2ccccc2)cc1	-2%

(listing goes on)
SMILES	VDR inhibitor
COc1ccc(OCC(=O)NNC(=O)c2cc3ccccc3o2)cc1	1%
Cc1cc(C)c(OCCCCNCc2ccccc2)c(Cl)c1	27%
COc1ccc(OC)c(N(CC(=O)N2CCCC2)S(=O)(=O)c2ccc(C)cc2)c1	-1%
COc1ccccc1NC(=O)c1cc(S(=O)(=O)NCCc2ccccc2)ccc1F	17%
COc1cc(NC2CCCCC2O)c2nc(-c3ccc(Cl)cc3)ccc2c1 (stereo unspecified)	-21%
CC1(C(=O)NCc2ccc(Cl)c(Cl)c2)Oc2cccnc2NC1=O (stereo unspecified)	-17%
O=C(CSc1nnc(COc2cccc3cccnc23)o1)N1CCc2ccccc21	-11%
O=C(C(=O)N1CCN(c2ccccc2)CC1)c1c[nH]c2ccccc12	-1%
Cc1cccc(C)c1OC(=O)C(c1ccccc1)c1ccccc1	-2%
O=C(Cc1ccccc1)N/N=C/c1ccc(-c2ccc([N+](=O)[O-])cc2)o1	-18%
Cc1nc(Nc2ccccc2C(F)(F)F)sc1C(=O)N(C)C	-1%
